DUX4 inh = DUX4-mediated transcription inhibition. actives 0.8% (n = 37,000). 293T-iDUX4 ZSCAN4-Gaussia luciferase reporter, 24 h; hits give low values. activity change, negative = inhibition, % (concentration not given with the values);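 active = -10% or lower and over 25 points stronger than a control reporter; inconclusive = -10% or lower with a smaller gap; inactive = above -10%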;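 note: 0% = median of neutral control wells and -100% = median of positive control wells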
DUX4 inh difference = second read-out of DUX4 inh, no call of its own (marks repeat the call); Gaussia minus Italica difference, %; measured here: selective DUX4 reporter inhibition;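 worked out from the two reporters; negative = selective loss of the DUX4 reporter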
DUX4 inh control = recorded beside DUX4 inh, whose call it bears; activity change, negative = inhibition, %; measured here: Italica tet-on control reporter;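 0 = neutral control and -100 = positive control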
Active calls of the source: *; ? = inconclusive; . = not tested or not shown. This is a subset. The share of hits here may be higher or lower than overall.

Start of the data: the first four records (preview)
DUX4 inh difference | SMILES | DUX4 inh | DUX4 inh control
2.7 | CNC[C@H]1Oc2c(NC(=O)NC3CCCCC3)cccc2C(=O)N([C@@H](C)CO)C[C@H]1C | 1.5 | -1.2
12.8 | COc1ccc2c3c(n(C)c2c1)[C@@H](CO)N(C(=O)Nc1ccc(F)cc1)CC31CN(C(=O)NC(C)C)C1 | 11.0 | -1.9
0.0 | O=C(C[C@H]1CC[C@@H]2[C@H](COC[C@H](O)CN2S(=O)(=O)c2ccccc2F)O1)NCc1ccccc1F | 1.4 | 1.4
1.0 | O=C(C[C@H]1CC[C@@H](NS(=O)(=O)c2ccccc2F)[C@H](CO)O1)NCCCN1CCOCC1 | 1.2 | 0.2

All compounds of this part, repeating the preview:
DUX4 inh difference | SMILES | DUX4 inh | DUX4 inh control
2.7 | CNC[C@H]1Oc2c(NC(=O)NC3CCCCC3)cccc2C(=O)N([C@@H](C)CO)C[C@H]1C | 1.5 | -1.2
12.8 | COc1ccc2c3c(n(C)c2c1)[C@@H](CO)N(C(=O)Nc1ccc(F)cc1)CC31CN(C(=O)NC(C)C)C1 | 11.0 | -1.9
0.0 | O=C(C[C@H]1CC[C@@H]2[C@H](COC[C@H](O)CN2S(=O)(=O)c2ccccc2F)O1)NCc1ccccc1F | 1.4 | 1.4
1.0 | O=C(C[C@H]1CC[C@@H](NS(=O)(=O)c2ccccc2F)[C@H](CO)O1)NCCCN1CCOCC1 | 1.2 | 0.2
-6.7 | CO[C@H]1CN(C)C(=O)c2ccc(NC(=O)c3cc(C)on3)cc2OC[C@H](C)N(CC2CC2)C[C@@H]1C | -5.6 | 1.1
-4.3 | Cc1nn(C)cc1NC(=O)C[C@H]1CC[C@@H]2[C@H](COc3ccc(NC(=O)C4CCOCC4)cc3C(=O)N2C)O1 | -5.0 | -0.7
2.9 | O=C(C[C@H]1CC[C@H]2[C@@H](COC[C@@H](O)CN2Cc2cc(F)ccc2F)O1)NCc1ccccc1 | 1.9 | -1.0
-2.8 | CO[C@H]1CN(C)C(=O)c2ccc(NC(=O)C3CC3)cc2OC[C@@H](C)N(C(=O)c2ccccc2F)C[C@H]1C | -4.5 | -1.7
-4.2 | Cc1ccccc1NC(=O)Nc1ccc2c(c1)C(=O)N(C)[C@H]1CC[C@H](CC(=O)NCC3CC3)O[C@@H]1CO2 | -5.0 | -0.8
0.5 | COc1ccc(S(=O)(=O)N2CC[C@@H]3[C@@H](CO)N(C)c4ccc(-c5ccccc5F)cc4[C@@H]32)cc1 | -8.6 | -9.1
. | O=C(c1ccc2c(c1)OCO2)N1CCCCN2[C@H](CO)[C@H](c3ccc(-c4ccccc4)cc3)[C@@H]2C1 | ? | .
7.0 | CCCC#Cc1ccc2c(c1)[C@H]1[C@H](CCN1C(=O)C1CCCCC1)[C@@H](CO)N2 | 10.9 | 3.9
. | CCC(=O)N1CCCCN2[C@H](CO)[C@H](c3ccc(/C=C/c4ccccc4)cc3)[C@H]2C1 | ? | .
1.4 | CCC(=O)N1CCCCN2[C@H](C1)[C@H](c1ccc(C#Cc3ccccc3)cc1)[C@@H]2CO | -1.2 | -2.6
2.0 | COc1ccc(CNC(=O)C[C@H]2C[C@@H]3c4cc(NC(=O)NC5CCCC5)ccc4O[C@@H]3[C@H](CO)O2)cc1 | 8.8 | 6.9
1.9 | CO[C@@H]1CN(C)C(=O)c2ccc(NC(=O)c3ccccc3)cc2OC[C@H](C)N(C(=O)C2CC2)C[C@H]1C | -1.3 | -3.3
4.7 | CC(C)OC(=O)N(C)C[C@H]1OCc2cnnn2CCCC(=O)N([C@H](C)CO)C[C@@H]1C | 6.1 | 1.4
17.9 | COc1ccc2c3c([nH]c2c1)[C@@H](CO)N(C)CC31CN(S(=O)(=O)c2cccc(F)c2)C1 | 18.8 | 0.9
-2.2 | COc1cccc(NC(=O)Nc2ccc3c(c2)C(=O)N(C)[C@@H]2CC[C@H](CC(=O)O)O[C@@H]2CO3)c1 | -0.1 | 2.1
0.1 | CCNC(=O)C[C@H]1CC[C@H]2[C@H](COc3ccc(NC(=O)c4ccc(C(F)(F)F)cc4)cc3C(=O)N2C)O1 | 2.3 | 2.2
-0.1 | C[C@@H]1CN([C@@H](C)CO)C(=O)CCCn2cc(nn2)CO[C@H]1CN(C)S(=O)(=O)c1ccc(Oc2ccccc2)nc1 | -1.0 | -0.9
-0.6 | C[C@H]1CN([C@@H](C)CO)C(=O)c2cc(NC(=O)Nc3ccc4c(c3)OCO4)ccc2O[C@H]1CN(C)C | -1.7 | -1.1
-0.3 | COCC(=O)N1[C@@H]2CN(C(=O)C3CC3)c3ccccc3[C@@H]2[C@@H]1CO | -0.4 | -0.1
-0.3 | O=C(Nc1ccc(Cl)cc1)N1C[C@H]2[C@@H](c3ccccc31)[C@@H](CO)N2C(=O)c1ccccn1 | -2.6 | -2.3
5.3 | O=C(C[C@H]1CC[C@H]2[C@@H](COC[C@H](O)CN2Cc2cccc(C(F)(F)F)c2)O1)NCc1ccncc1 | 0.6 | -4.7
5.6 | Cc1noc(C)c1NC(=O)N(C)C[C@@H]1Oc2c(cccc2N(C)C)C(=O)N([C@@H](C)CO)C[C@@H]1C | -2.2 | -7.7
-2.1 | CC(=O)N1CC2(C1)[C@H](c1ccc(-c3ccccc3C)cc1)[C@@H](CO)N2C(C)=O | 0.7 | 2.9
5.4 | CN1C(=O)c2cc(NC(=O)C3CCCC3)ccc2OC[C@@H]2O[C@@H](CC(=O)NCC(F)(F)F)CC[C@H]21 | 4.6 | -0.8
3.0 | CNC[C@@H]1Oc2ncc(-c3cncnc3)cc2C(=O)N([C@@H](C)CO)C[C@H]1C | 4.1 | 1.2
4.6 | O=S(=O)(NCC[C@@H]1CC[C@H](NS(=O)(=O)c2cccc(Cl)c2)[C@H](CO)O1)c1cccc(F)c1 | 2.3 | -2.3
. | COc1ccc2c3c([nH]c2c1)[C@@H](CO)N(Cc1nccs1)CC31CCN(C(=O)C2CCCCC2)CC1 | ? | .
0.5 | CC(C)NC(=O)N(C)C[C@H]1Oc2c(NS(=O)(=O)c3cccs3)cccc2C(=O)N([C@@H](C)CO)C[C@H]1C | -0.2 | -0.7
-2.7 | C[C@H](CO)N1C[C@H](C)[C@@H](CN(C)S(C)(=O)=O)OCCCC[C@H](C)Oc2ccc(NC(=O)NC3CCCCC3)cc2C1=O | -1.6 | 1.1
-2.9 | Cc1nc(N2[C@@H](C#N)[C@H](c3ccccc3)[C@@H]2CO)sc1C | -1.5 | 1.4
6.1 | O=C(Cc1ccccn1)N1CC(=O)N2[C@H](C1)[C@@H](c1ccc(-c3ccc(F)cc3)cc1)[C@@H]2CO | 5.3 | -0.7
-0.2 | Cc1cccc(S(=O)(=O)N2C[C@H]3[C@@H](c4ccccc42)[C@@H](CO)N3C(=O)c2ccccc2)c1 | 2.5 | 2.7
5.6 | O=C(C[C@H]1CC[C@H]2[C@@H](COC[C@H](O)CN2C(=O)Nc2ccccc2)O1)NCCCN1CCOCC1 | 17.1 | 11.5
. | CO[C@@H]1CN(C)C(=O)c2cc(NC(=O)c3ccc(Oc4ccccc4)cc3)ccc2OC[C@H](C)NC[C@H]1C | ? | .
. | O=C(C[C@@H]1CC[C@@H]2[C@H](COC[C@@H](O)CN2Cc2cccc(C(F)(F)F)c2)O1)NCc1ccc(Cl)cc1 | ? | .
7.0 | CN(C)C(=O)[C@H]1[C@H](CO)[C@H]2Cn3c(ccc(-c4cccc(F)c4)c3=O)[C@H]2N1C(=O)c1cnccn1 | 3.5 | -3.6
6.6 | CN(C)C(=O)C[C@@H]1CC[C@H](NC(=O)C2CCOCC2)[C@@H](CO)O1 | 7.0 | 0.4
-3.1 | Cc1ccccc1-c1ccc([C@H]2[C@@H](CO)N3C(=O)CN(C(=O)c4cccnc4)C[C@@H]23)cc1 | 8.2 | 11.3
-6.7 | COc1ccc(C(=O)Nc2ccc3c(c2)C(=O)N(C)[C@@H]2CC[C@@H](CC(=O)NCC4CC4)O[C@@H]2CO3)cc1 | -1.1 | 5.7
. | N#Cc1cccc(-c2ccc([C@H]3[C@H]4CN(Cc5ccccc5F)CCCCN4[C@H]3CO)cc2)c1 | ? | .
2.9 | O=C(C[C@H]1CC[C@@H]2NC[C@H](O)COC[C@H]2O1)NCCc1ccncc1 | 8.6 | 5.7
1.1 | COc1ccc(NC(=O)N2CC(=O)N3[C@H](CO)[C@@H](c4ccc(-c5ccc(C)cc5)cc4)[C@H]3C2)cc1 | -0.4 | -1.5
-3.5 | Cc1noc(C)c1S(=O)(=O)N(C)C[C@@H]1OCCCC[C@H](C)Oc2ccc(NC(=O)CCC(F)(F)F)cc2C(=O)N([C@H](C)CO)C[C@@H]1C | 0.0 | 3.5
-6.6 | CN(C)C(=O)[C@@H]1[C@@H](CO)[C@@H]2Cn3c(ccc(C4=CCCC4)c3=O)[C@H]1N2Cc1cccnc1 | -3.7 | 2.9
2.1 | COc1ccccc1-c1ccc2n(c1=O)C[C@@H]1[C@@H](CO)[C@H](C(=O)N3CCN(C)CC3)[C@H]2N1CC1CC1 | 3.3 | 1.2
-4.5 | CN(C)C(=O)C[C@H]1C[C@@H]2c3cc(N(C)C)ccc3O[C@@H]2[C@@H](CO)O1 | -4.3 | 0.1
-3.0 | CCCNC(=O)C[C@@H]1C[C@H]2c3cc(NC(=O)Nc4ccc(F)cc4)ccc3O[C@H]2[C@@H](CO)O1 | -3.4 | -0.5
-6.9 | CCCN1[C@H](C(=O)N2CCCCC2)[C@@H](CO)[C@@H]2Cn3c(ccc(-c4ccccc4)c3=O)[C@@H]21 | -4.9 | 1.9
-6.3 | CNC(=O)C[C@@H]1CC[C@H]2[C@@H](COc3ccc(NC(=O)C4CC4)cc3C(=O)N2C)O1 | -2.2 | 4.2
1.7 | CCC(=O)N1C[C@@H](O)COC[C@H]2O[C@H](CC(=O)N3CCCCC3)CC[C@@H]21 | 7.3 | 5.6
-0.1 | CCCC(=O)Nc1ccc2c(c1)OC[C@H](C)N(Cc1nccs1)C[C@@H](C)[C@H](OC)CN(C)C2=O | -1.9 | -1.8
-2.0 | CO[C@H]1CN(C)C(=O)c2cc(NC(=O)c3ccc(F)cc3)ccc2OC[C@@H](C)N(C(=O)CC2CC2)C[C@H]1C | -8.6 | -6.6
-3.2 | O=C(NCC(F)(F)F)[C@@H]1[C@@H](CO)[C@@H]2Cn3c(cccc3=O)[C@H]1N2CC1CCOCC1 | -1.2 | 2.0
-8.3 | N#C[C@@H]1[C@H](c2ccccc2C2=CCCC2)[C@H](CO)N1C(=O)C1CCCC1 | -5.7 | 2.6
4.5 | COc1ccc2c3c([nH]c2c1)[C@@H](CO)N(S(C)(=O)=O)CC31CCN(C(=O)CN(C)C)CC1 | 0.4 | -4.0
-10.6 | CCCNC(=O)C[C@@H]1CC[C@@H]2[C@H](COC[C@H](O)CN2C(=O)Nc2ccc3c(c2)OCO3)O1 | -1.4 | 9.1

Continuation:
DUX4 inh difference | SMILES | DUX4 inh | DUX4 inh control
3.5 | COCC(=O)Nc1ccc2c(c1)[C@@H]1C[C@@H](CC(=O)N3CCc4ccccc4C3)O[C@H](CO)[C@@H]1O2 | 4.5 | 1.0
2.9 | CCS(=O)(=O)N1CCCCN2[C@H](C1)[C@@H](c1ccc(C#CC(C)(C)O)cc1)[C@@H]2CO | 13.4 | 10.5
-3.5 | O=C(C1CCOCC1)N1C[C@@H]2[C@H](c3ccccc31)[C@@H](CO)N2C(=O)Cc1ccccc1 | -4.7 | -1.3
5.3 | O=C(Cc1cccnc1)N[C@@H]1CC[C@H](CCNS(=O)(=O)c2ccccc2Cl)O[C@@H]1CO | 2.8 | -2.6
14.9 | C[C@H]1CN([C@@H](C)CO)C(=O)c2c(c3ccccc3n2C)-c2ccccc2CO[C@@H]1CN(C)C(=O)Nc1ccc(F)cc1 | 3.1 | -11.8
-0.9 | C[C@H](CO)N1C[C@H](C)[C@@H](CN(C)C(=O)Cc2ccccn2)Oc2ncc(/C=C/c3ccccc3)cc2C1=O | -0.2 | 0.6
-0.8 | O=C(Nc1ccccc1F)N1C[C@H]2[C@@H](c3ccccc31)[C@H](CO)N2C(=O)c1ccccn1 | -3.6 | -2.9
-3.7 | COc1ccc(NC(=O)Nc2ccc3c(c2)[C@@H]2C[C@@H](CC(=O)NCc4ccc5c(c4)OCO5)O[C@H](CO)[C@@H]2O3)cc1 | 2.7 | 6.4
-3.7 | CN1C(=O)c2cc(NC(=O)c3ccc(C#N)cc3)ccc2OC[C@H]2O[C@@H](CC(=O)NCc3ccc4c(c3)OCO4)CC[C@@H]21 | 0.5 | 4.2
5.3 | O=C(CN1CCOCC1)N1CCCCN2[C@H](CO)[C@H](c3ccc(-c4ccccc4)cc3)[C@@H]2C1 | 26.4 | 21.1
2.2 | C[C@H]1CN([C@@H](C)CO)C(=O)c2cc(N(C)C)ccc2O[C@@H]1CN(C)C(=O)Nc1cccc2ccccc12 | 2.2 | -0.1
-1.4 | CS(=O)(=O)N1[C@H](CO)[C@H](c2ccccc2)C12CN(C(=O)C1CC1)C2 | 1.5 | 2.9
-4.7 | C/C=C/c1ccccc1[C@H]1[C@@H](C#N)N(C(=O)NC2CCCCC2)[C@H]1CO | -8.0 | -3.3
-15.2 | Cc1cccc(S(=O)(=O)N2CC[C@@H]3[C@@H](CO)N(C)c4ccc(Br)cc4[C@@H]32)c1 | -8.0 | 7.2
24.3 | CN1c2ccc(-c3ccccc3)cc2[C@H]2[C@H](CCN2C(=O)Nc2ccccc2F)[C@H]1CO | -8.0 | -32.3
-0.2 | O=C(Cc1ccccc1)N1CC2(C1)[C@@H](c1ccccc1)[C@@H](CO)N2S(=O)(=O)Cc1ccccc1 | -6.7 | -6.6
-0.3 | C[C@@H]1CN([C@@H](C)CO)C(=O)CCCn2nncc2CO[C@@H]1CN(C)C(=O)Nc1ccccc1C(F)(F)F | 0.8 | 1.0
0.4 | O=C(C[C@H]1CC[C@H](NC(=O)CN2CCOCC2)[C@@H](CO)O1)NCCc1ccncc1 | 2.0 | 1.6
-0.7 | COCC(=O)N(C[C@@H]1N[C@H](CO)[C@H]1c1ccc(-c2cccnc2)cc1)C(C)C | -0.8 | 0.0
